# UUG fidelity = modulators of start codon recognition fidelity in yeast | activity score, % at 18.7 µM | S. cerevisiae UUG-firefly luciferase reporter, luminescence/redox ratio | AID 602363 | 350,000 compounds, 0.13% hits;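 active means replicate mean at a twofold rise or more, about +100% in these data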;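 further: firefly luciferase made from a UUG start codon reports start codon fidelity; reporter light over untreated wells divided by growth signal over untreated wells; some hits fall short of that in this replicate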
# Env fusion inh = HIV envelope-mediated fusion inhibition; HeLa-JRFL Env/CEM21 cell fusion, luciferase; inhibition, % at 12.3 µM; 360,000 compounds, 1.1% hits; AID 651610;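 active means mean replicate inhibition score of at least 50 and every replicate individually at or above 50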;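 further: 0% = plate neutral controls and 100% = maraviroc near 300 nM; one replicate is shown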
# * hit, by the source's call; [ ] = remark or other dose. A portion of the library; count on the stated rates, not on these rows.
smiles	UUG fidelity	Env fusion inh
C/C=C/c1cnc2c(c1)C(=O)N([C@@H](C)CO)C[C@@H](C)[C@H](CN(C)Cc1ccccc1)O2	3.1	-13.2[16.7 µM]
CCCN(C)C[C@H]1OCCCC[C@H](C)Oc2ccc(N(C)C)cc2C(=O)N([C@@H](C)CO)C[C@H]1C	-5.0	8.7[16.7 µM]
C[C@H](CO)N1C[C@H](C)[C@H](CN(C)S(=O)(=O)c2cn(C)cn2)Oc2ccc(NC(=O)CCCCCC(=O)Nc3ccccc3N)cc2CC1=O	3.9	1.1[16.7 µM]
C[C@H](CO)N1C[C@H](C)[C@H](CN(C)C(=O)c2ccncc2)Oc2ncc(-c3ccncc3)cc2C1=O	-13.6	-3.2[16.7 µM]
O=C(NC1CCCC1)N[C@H]1CC[C@@H](CC(=O)N2CCOCC2)O[C@@H]1CO	-12.9	-0.8[16.7 µM]
O=C(NC1CCCC1)N[C@H]1CC[C@H](CC(=O)N2CCOCC2)O[C@@H]1CO	-6.6	4.1[16.7 µM]
CNC(=O)C[C@H]1CC[C@H]2[C@H](COc3ccc(NC(=O)NCc4ccccc4)cc3C(=O)N2C)O1	14.8	-5.5[16.7 µM]
C[C@H](CO)N1C[C@H](C)[C@@H](CN(C)S(=O)(=O)c2ccc(Cl)cc2)Oc2ccc(NS(=O)(=O)c3cn(C)cn3)cc2CC1=O	11.0	-8.0[16.7 µM]
CNC[C@H]1Oc2ccc(NC(=O)Nc3cccc4ccccc34)cc2CC(=O)N([C@@H](C)CO)C[C@@H]1C	12.3	-4.4[16.7 µM]
COc1ccc(S(=O)(=O)Nc2ccc3c(c2)CC(=O)N([C@H](C)CO)C[C@@H](C)[C@@H](CN(C)Cc2ccc4c(c2)OCO4)O3)cc1	1.6	-4.1[16.7 µM]
Cc1noc(C)c1NC(=O)Nc1ccc2c(c1)C(=O)N([C@@H](C)CO)C[C@@H](C)[C@H](CN(C)C(=O)NC(C)C)OCCCC[C@@H](C)O2	15.7	-22.3[16.7 µM]
CC(C)CC#Cc1cnc2c(c1)C(=O)N([C@H](C)CO)C[C@@H](C)[C@H](CN(C)C(=O)Cc1ccncc1)O2	-5.1	-13.3[16.7 µM]
CCCNC(=O)N1[C@H](C#N)[C@@H](c2ccc(-c3cccc(OC)c3)cc2)[C@H]1CO	-9.6	17.4[16.7 µM]
C[C@@H]1CN([C@H](C)CO)C(=O)c2cc(N(C)C)ccc2O[C@@H](C)CCCCO[C@@H]1CN(C)S(=O)(=O)c1cn(C)cn1	0.7	28.6[16.7 µM]
Cc1ccc(S(=O)(=O)Nc2ccc3c(c2)C(=O)N([C@H](C)CO)C[C@H](C)[C@H](CN(C)C(=O)Nc2ccc4c(c2)OCO4)OCCCC[C@H](C)O3)cc1	20.0	-49.8[16.7 µM]
C[C@@H]1CN([C@H](C)CO)S(=O)(=O)c2ccc(C3=CCCCC3)cc2O[C@@H]1CN(C)Cc1ccncc1	-22.0	26.5[16.7 µM]
C[C@@H]1CCCCO[C@@H](CN(C)C(=O)CCCN(C)C)[C@H](C)CN([C@@H](C)CO)C(=O)c2cc(NC(=O)CCCN(C)C)ccc2O1	17.7	19.4[16.7 µM]
O=C(C[C@@H]1CC[C@H]2[C@@H](COC[C@@H](O)CN2S(=O)(=O)c2ccc(F)cc2)O1)NCC1CCCCC1	1.0	-1.5[16.7 µM]
Cc1ccc(S(=O)(=O)NC2CCN(Cc3ccc(OCCO)cc3)CC2)cc1	-4.6	32.6[16.7 µM]
C[C@H]1CN([C@@H](C)CO)C(=O)c2cccc(NS(=O)(=O)c3cn(C)cn3)c2O[C@H]1CN(C)S(=O)(=O)c1cccs1	-19.4	-4.4[16.7 µM]

# (list continues)
smiles	UUG fidelity	Env fusion inh
Cc1ccc(S(=O)(=O)NCC[C@@H]2CC[C@@H](NC(=O)c3cccnc3)[C@H](CO)O2)cc1	-17.5	-13.2[16.7 µM]
C[C@@H]1CN([C@H](C)CO)C(=O)c2cc(/C=C/c3ccccc3)cnc2O[C@@H]1CN(C)C(=O)c1ccccc1	1.8	-22.6[16.7 µM]
CC(C)NC(=O)N(C)C[C@H]1Oc2ccc(NC(=O)Nc3ccc(F)cc3)cc2CC(=O)N([C@H](C)CO)C[C@H]1C	-6.7	-17.1[16.7 µM]
COc1ccc(NC(=O)N(C)C[C@@H]2Oc3c(NC(=O)c4nc5ccccc5s4)cccc3C(=O)N([C@@H](C)CO)C[C@H]2C)cc1	9.3	-1.0[16.7 µM]
O=C(O)C[C@H]1C[C@H]2c3cc(NC(=O)NC4CCCC4)ccc3O[C@H]2[C@H](CO)O1	-10.5	21.3[16.7 µM]
CNC[C@H]1Oc2ccc(NC(=O)Nc3ccc4c(c3)OCO4)cc2CC(=O)N([C@@H](C)CO)C[C@@H]1C	-8.3	-2.6[16.7 µM]
COc1ccc(-c2cnc3c(c2)C(=O)N([C@@H](C)CO)C[C@H](C)[C@H](CN(C)C(=O)Cc2ccccn2)O3)cc1	-10.7	-21.3[16.7 µM]
O=C(Cc1ccncc1)NCC[C@H]1CC[C@@H](NC(=O)C2CC2)[C@@H](CO)O1	-2.7	-6.7[16.7 µM]
CN1C(=O)c2cc(NC(=O)c3ccc(C(F)(F)F)cc3)ccc2OC[C@H]2O[C@@H](CC(=O)O)CC[C@H]21	1.5	10.9[16.7 µM]
CNC[C@@H]1Oc2c(NC(=O)C3CC3)cccc2C(=O)N([C@@H](C)CO)C[C@@H]1C	1.7	-10.5[16.7 µM]
N#C[C@H]1[C@@H](c2ccc(C#Cc3cccc(F)c3)cc2)[C@H](CO)N1C(=O)C1CCC1	-15.6	14.6[16.7 µM]
O=C(NCC[C@H]1CC[C@@H](NS(=O)(=O)c2ccc(F)cc2)[C@@H](CO)O1)c1ccc2c(c1)OCO2	2.0	0.6[16.7 µM]
COc1ccc(NC(=O)Nc2ccc3c(c2)C(=O)N([C@H](C)CO)C[C@@H](C)[C@@H](CN(C)Cc2ccc(Cl)c(Cl)c2)OCCCC[C@H](C)O3)cc1	0.2	26.6[16.7 µM]
O=C(Nc1ccc(F)cc1)N[C@@H]1CC[C@H](CCn2cc(-c3ccc(F)cc3)nn2)O[C@H]1CO	-16.2	1.4[16.7 µM]
COc1cccc(NC(=O)N[C@H]2C=C[C@@H](CC(=O)NCc3ccccn3)O[C@@H]2CO)c1	-8.5	18.5[16.7 µM]
CCNC(=O)C[C@H]1CC[C@H](NS(=O)(=O)c2ccc(F)cc2)[C@@H](CO)O1	-6.6	-1.8[16.7 µM]
COc1ccc(CN(C)C[C@H]2OCCCC[C@H](C)Oc3ccc(NC(=O)Nc4cccc5ccccc45)cc3C(=O)N([C@@H](C)CO)C[C@@H]2C)cc1	16.8	4.3[16.7 µM]
Cc1ccc(S(=O)(=O)N(C)C[C@H]2Oc3ccc(NS(=O)(=O)c4cccs4)cc3C(=O)N([C@H](C)CO)C[C@@H]2C)cc1	11.1	19.7[16.7 µM]
CO[C@H]1CN(C)C(=O)c2cc(NC(=O)C3CC3)ccc2OC[C@@H](C)N(C(=O)c2ccncc2)C[C@H]1C	3.0	-11.3[16.7 µM]
C[C@H](CO)N1C[C@H](C)[C@H](CN(C)Cc2ccc3c(c2)OCO3)Oc2ccc(NC(=O)Cn3cnnn3)cc2CC1=O	-5.3	6.7[16.7 µM]

# (list continues)
smiles	UUG fidelity	Env fusion inh
C[C@@H]1CN([C@H](C)CO)S(=O)(=O)c2ccc(C#Cc3ccccc3)cc2O[C@H]1CN(C)C(=O)C1CC1	-35.1	58.5*[16.7 µM]
C[C@@H]1CN([C@@H](C)CO)C(=O)CCCn2cc(nn2)CO[C@H]1CN(C)C(=O)Nc1ccc2c(c1)OCCO2	8.1	14.1
N#C[C@@H]1[C@H](c2ccccc2)[C@H](CO)N1C(=O)c1cccnc1	-9.7	6.5[16.7 µM]
C=CCOC(=O)[C@@H]1[C@H]2C(=O)O[C@H](c3ccccc3)[C@H](c3ccccc3)N2[C@H](c2ccc(OCCOC(=O)[C@@H]3C[C@@H]4C(=O)N5CCC[C@H]5C(=O)N4[C@@H]3c3ccc(O)cc3)cc2)[C@@]12C(=O)Nc1ccc(I)cc12	-2.5	-6.7[16.7 µM]
CNC(=O)C[C@H]1CC[C@@H]2[C@@H](COc3ccc(NC(=O)C(C)C)cc3C(=O)N2C)O1	5.4	-10.2[16.7 µM]
O=C1CSC(c2ccccc2)N1c1ccccc1 (configuration not stated)	-8.2	-8.6[16.7 µM]
CCCC(=O)Nc1ccc2c(c1)C(=O)N(C)C[C@H](OC)[C@@H](C)CN(Cc1cncnc1)[C@@H](C)CO2	12.2	-2.5[16.7 µM]
C[C@H]1CN([C@@H](C)CO)C(=O)c2cc(NS(=O)(=O)c3cccs3)ccc2O[C@@H]1CN(C)S(=O)(=O)c1ccccc1	21.5	11.6[16.7 µM]
O=C(N[C@H]1CC[C@@H](CCNS(=O)(=O)c2ccccc2)O[C@@H]1CO)c1cccc(F)c1	-7.4	-3.6[16.7 µM]
C[C@@H]1CN([C@H](C)CO)C(=O)c2cc(NC(=O)CCC(F)(F)F)ccc2O[C@@H]1CN(C)C(=O)Nc1ccccc1	3.8	15.7[16.7 µM]
C[C@@H]1CN([C@H](C)CO)C(=O)c2cc(NC(=O)Cc3cn(C)c4ccccc34)ccc2O[C@H]1CN(C)C(=O)NC1CCCCC1	9.5	-7.3[16.7 µM]
C[C@@H]1CCCCO[C@@H](CN(C)C(=O)CCCN(C)C)[C@@H](C)CN([C@@H](C)CO)C(=O)c2cc(N(C)C)ccc2O1	61.1	16.9[16.7 µM]
COc1ccc(NC(=O)Nc2ccc3c(c2)C(=O)N([C@H](C)CO)C[C@@H](C)[C@@H](CN(C)Cc2ccc(C(=O)O)cc2)OCCCC[C@H](C)O3)cc1	16.0	-12.1[16.7 µM]
C[C@@H]1CN([C@@H](C)CO)C(=O)c2cc(C#CC3(O)CCCC3)cnc2O[C@H]1CN(C)S(=O)(=O)c1ccc(F)cc1	17.9	24.0[16.7 µM]
COc1ccc(-c2ccc([C@@H]3[C@@H](CO)N(C(=O)C4CCOCC4)[C@H]3C#N)cc2)cc1	-6.9	-13.7[16.7 µM]
C[C@@H](NC(=O)C[C@H]1CC[C@@H](NC(=O)C2CCOCC2)[C@H](CO)O1)c1ccccc1	-15.6	19.2[16.7 µM]
C[C@@H]1CCCCO[C@H](CN(C)C(=O)Nc2cccc3ccccc23)[C@H](C)CN([C@@H](C)CO)C(=O)c2cc(NC(=O)Cc3ccccc3)ccc2O1	1.0	-115.8[16.7 µM]
O=C(Nc1ccccc1)N[C@@H]1CC[C@H](CCNS(=O)(=O)c2ccccc2F)O[C@H]1CO	-0.6	-0.1[16.7 µM]
Cc1noc(C)c1S(=O)(=O)Nc1ccc2c(c1)C(=O)N([C@H](C)CO)C[C@H](C)[C@H](CN(C)Cc1ccc(-c3ccccc3)cc1)O2	5.4	-16.8[16.7 µM]
C[C@@H]1CCCCO[C@@H](CN(C)Cc2ccc(C(=O)O)cc2)[C@@H](C)CN([C@H](C)CO)C(=O)c2cc(NC(=O)Nc3ccc(F)cc3)ccc2O1	-20.2	14.2[16.7 µM]

# Single records, from the list above. Screens in order: UUG fidelity	Env fusion inh
# Listed for C[C@@H]1CCCCO[C@H](CN(C)C(=O)Nc2cccc3ccccc23)[C@H](C)CN([C@@H](C)CO)C(=O)c2cc(NC(=O)Cc3ccccc3)ccc2O1 = 1.0	-115.8[16.7 µM]
# Listed for C[C@@H](NC(=O)C[C@H]1CC[C@@H](NC(=O)C2CCOCC2)[C@H](CO)O1)c1ccccc1 = -15.6	19.2[16.7 µM]

# Look-ups from the results shown:
# C[C@@H]1CN([C@@H](C)CO)C(=O)c2cc(C#CC3(O)CCCC3)cnc2O[C@H]1CN(C)S(=O)(=O)c1ccc(F)cc1 | UUG fidelity = 17.9
# C[C@@H]1CCCCO[C@@H](CN(C)Cc2ccc(C(=O)O)cc2)[C@@H](C)CN([C@H](C)CO)C(=O)c2cc(NC(=O)Nc3ccc(F)cc3)ccc2O1 | Env fusion inh = 14.2[16.7 µM]
# C[C@@H]1CN([C@@H](C)CO)C(=O)CCCn2cc(nn2)CO[C@H]1CN(C)C(=O)Nc1ccc2c(c1)OCCO2 | Env fusion inh = 14.1

# Next records:
smiles	UUG fidelity	Env fusion inh
COc1ccc(NC(=O)N[C@@H]2CC[C@@H](CCNS(=O)(=O)c3ccccc3F)O[C@@H]2CO)cc1	3.5	12.2[16.7 µM]
COc1ccc(-c2cnc3c(c2)C(=O)N([C@H](C)CO)C[C@H](C)[C@H](CN(C)Cc2ccc(F)cc2)O3)cc1	2.9	-13.3[16.7 µM]
O=C(C[C@@H]1C=C[C@@H](NC(=O)C2CCC2)[C@H](CO)O1)NC1CCCCC1	-19.6	2.5[16.7 µM]
COc1ccc(S(=O)(=O)N(C)C[C@H]2Oc3ccc(NS(=O)(=O)c4ccc(C)cc4)cc3CC(=O)N([C@H](C)CO)C[C@@H]2C)cc1	20.7	-19.3[16.7 µM]
Cc1ccccc1S(=O)(=O)N[C@H]1CC[C@H](CCn2cc(-c3ccc(F)cc3)nn2)O[C@@H]1CO	-3.8	-0.6[16.7 µM]
C[C@H](CO)N1C[C@H](C)[C@@H](CN(C)C(=O)CCC(F)(F)F)OCCCC[C@H](C)Oc2ccc(NS(=O)(=O)c3cn(C)cn3)cc2C1=O	-3.8	4.6[16.7 µM]
C[C@@H]1CN([C@@H](C)CO)C(=O)Cc2cc(NC(=O)Nc3ccc(F)cc3)ccc2O[C@@H]1CN(C)Cc1ccc(C(=O)O)cc1	17.9	13.1[16.7 µM]
C[C@@H]1CCCCO[C@@H](CN(C)C)[C@@H](C)CN([C@H](C)CO)C(=O)c2cc(NC(=O)Cc3ccccc3)ccc2O1	4.9	-2.1[16.7 µM]
CC(C)CC#Cc1cnc2c(c1)C(=O)N([C@H](C)CO)C[C@H](C)[C@@H](CN(C)Cc1ccc3c(c1)OCO3)O2	-4.5	-9.5[16.7 µM]
C[C@H]1CN([C@@H](C)CO)C(=O)c2cc(-c3cccnc3)cnc2O[C@H]1CN(C)C(=O)C1CC1	-12.4	5.7[16.7 µM]
Cc1noc(C)c1S(=O)(=O)Nc1ccc2c(c1)C(=O)N([C@H](C)CO)C[C@H](C)[C@H](CN(C)S(=O)(=O)c1cccs1)O2	13.3	18.6[16.7 µM]

# Screening data from PubChem.
